Sa growth 42C: S. aureus growth inhibition at 42 and 30 °C, primary screen, LtaS inhibitor project, RN4220, two temperatures. AID 720641, 2013. relative growth, % (concentration not given with the values). OD600, 20 h, 42 °C; hits give low values. 170,000 tested, 0.53% active;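 active means growth at 42 °C up to 50% and 20 or more points under that at 30 °C, or under 10% at both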;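 further: 300 nL library stock went into each well; scaled to the means of positive and negative controls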
HCMV UL50-53 inh: inhibitors of HCMV UL50-UL53 interaction, biochemical, HTRF | normalized percent inhibition | inhibition, % (test concentration not listed) | 190,000 tested, 0.15% active | HCMV UL50-UL53 nuclear egress complex (human cytomegalovirus);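 active means both replicates at 50% or more, plus weaker picks with an unusually low signal ratio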;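 further: stock transfer was 100 nL into about 20 µL; 0% = negative control wells and 100% = wells with untagged competitor protein; inactives centre near -12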
GIV Gai3 FP: inhibitors of GIV peptide binding to Galpha-i3, primary screen, biochemical, fluorescence polarization, FITC-GIV GBA peptide, rat Galphai3 | Guanine nucleotide-binding protein G(i) subunit alpha-3 (Rattus norvegicus), P08753 | 90 min; hits give low values; scaled: aluminum fluoride 0%, vehicle 100% | percent of control (FP), % (no concentration beside the values) | 210,000 tested, 0.42% active | AID 1224905, 2016;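 active means replicate mean at 85% of control or lower, very high polarization wells dropped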;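 further: wells of about 15 µL received 100 nL stock; the first replicate is given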
Target sequence (P08753 whole entry, looked up): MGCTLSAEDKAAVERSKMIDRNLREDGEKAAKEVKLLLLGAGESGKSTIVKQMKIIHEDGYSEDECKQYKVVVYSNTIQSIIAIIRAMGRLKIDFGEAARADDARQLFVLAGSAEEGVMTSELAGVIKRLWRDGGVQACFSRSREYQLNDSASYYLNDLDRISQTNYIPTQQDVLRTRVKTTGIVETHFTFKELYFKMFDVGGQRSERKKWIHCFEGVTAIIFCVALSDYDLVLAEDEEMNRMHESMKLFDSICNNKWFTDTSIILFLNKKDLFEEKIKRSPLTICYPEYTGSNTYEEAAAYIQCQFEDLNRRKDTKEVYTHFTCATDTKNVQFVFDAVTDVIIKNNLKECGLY
Sa growth 42C second temp: further read-out of Sa growth 42C, marked with its call; relative growth, %; measured here: growth at 30 °C;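 optical density after 20 h as mean of two plates; 100% = untreated growth and lower means inhibition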
Starred values were filed as active, the others as inactive; x = no result given; & = joins results of further samples. Rows are unselected. About 0.79% of those tested had a hit in this group.

SMILES	Sa growth 42C	Sa growth 42C second temp	HCMV UL50-53 inh	GIV Gai3 FP
O=CN1CCN(Cc2cccc(Cl)c2)CC1	109.7	102.0	-17.8	101.0
O=CNC1CCCc2c1[nH]c1ccccc21 (stereo unspecified)	96.5	101.9	-2.2	94.7
CSc1nc2ccc3nc(NC(=O)c4ccc(S(=O)(=O)N5CCCC5)cc4)sc3c2s1	x	x	-9.8	102.2
O=C(c1ccccn1)c1conc1-c1c(Cl)cccc1Cl	x	x	-15.9	102.2
CCC(C)c1ccc(NC(=O)C2CCCN(c3ncccn3)C2)cc1 (stereo unspecified)	101.8	77.9	-25.1	99.7
CCOC(=O)c1ccccc1C(=O)c1ccc(N(C)C)cc1	106.7	91.1	-27.3	101.9
O=c1[nH]c(N2CCCCC2)nc2ncn(Cc3ccccc3)c12	95.8	86.5	-11.3	105.9
Cc1nn(-c2ccccc2)cc1-c1noc(C(=O)NCCCc2ccccc2)n1	x	x	-15.5	102.4
Cc1[nH]c2ccccc2c1C1(O)C(=O)N(Cc2ccc(Cl)cc2)c2ccccc21 (stereo unspecified)	89.0	76.2	-0.8	105.5
COCCN1C(=O)c2ccccc2C(C(=O)NCCc2cccc(C)c2)C1c1c[nH]c2ccccc12 (stereo unspecified)	115.2	89.4	x	96.3
CN(C)CCn1c(NC(=O)c2ccc(Cl)cc2)nc2ccccc21	x	x	-1.1	106.1
C=CCN(C(=O)c1cc2cc3cc(OC)ccc3nc2s1)c1ccccc1	90.5	83.0	x	102.9
COC(C(=O)Nc1ccc(Cl)cn1)c1ccccc1 (stereo unspecified)	105.5	87.7	-1.7	x
CCN(C(=O)Cn1nc(Cc2cccnc2)c2ccccc2c1=O)c1cc(C)ccc1C	122.4	81.8	-16.4	108.4
CCN(C#N)c1nc(N(C)C)nc(N2CCOCC2)n1	93.0	102.6	-7.8	108.4
Cc1ccc(O)c(NC(=O)c2ccc(Br)o2)c1	107.1	101.5	10.2	98.5
O=C(NCc1ccco1)c1nc2c(nnn2Cc2cccc(Cl)c2)c(=O)[nH]1	109.5	83.8	-4.0	100.3
O=C(Cc1n[nH]c(=O)c2ccccc12)NCc1ccccc1	85.2	83.9	-17.8	93.5
CCOc1ccc2[nH]c(=O)c(CN(C(C)=O)C3CCCC3)cc2c1	92.7	100.0	-23.8	102.0
COc1ccc(NS(=O)(=O)c2ccc3c(c2)CCCC(=O)N3)cc1	x	x	-14.2	108.2

Compounds listed so far containing a furan ring, fused or not, in the order listed:
SMILES	Sa growth 42C	Sa growth 42C second temp	HCMV UL50-53 inh	GIV Gai3 FP
Cc1ccc(O)c(NC(=O)c2ccc(Br)o2)c1	107.1	101.5	10.2	98.5
O=C(NCc1ccco1)c1nc2c(nnn2Cc2cccc(Cl)c2)c(=O)[nH]1	109.5	83.8	-4.0	100.3

New compounds follow
SMILES	Sa growth 42C	Sa growth 42C second temp	HCMV UL50-53 inh	GIV Gai3 FP
CCC(=O)Nc1ccc(S(=O)(=O)NCc2cccn2Cc2cccc(C)c2)cc1	101.8	91.3	x	98.7
CN1CCc2nc(NC(=O)c3ccc(F)cc3)sc2C1	x	x	5.0	100.0
CC(=O)NC(=S)Nc1ccccc1N1CCN(C(=O)c2ccccc2)CC1	103.8	98.6	-1.0	99.6
CCc1ccccc1NC(=O)CCSc1nc2n[nH]c(C)c2c(=N)n1-c1cccc(Cl)c1	109.3	82.1	x	101.3
Cc1ccc(-n2nc(C)c(C(=O)O)n2)cc1	x	x	-3.5	103.2
CC1=C(C(=O)Nc2cccc(C(F)(F)F)c2)C2(CCCCCC2)OC1=O	85.3	120.5	x	103.0
CCOc1ccc(-c2cn3nc(CC(C)C)sc3n2)cc1	107.8	93.8	7.2	105.8
CCOC(=O)c1cc(-c2ccc(Cl)s2)nn1C(C)=O	125.2	89.4	-39.6	103.3
O=C(c1cccc2c1NC(c1ccc(Br)cc1)C1CC=CC21)N1CCCC1 (stereo unspecified)	x	x	-23.4	111.1
O=C1CSC(c2cn(-c3ccccc3)nc2-c2ccccc2)N1CCO (stereo unspecified)	93.3	83.7	-9.7	x
Cc1cccc(Nc2nc3nonc3nc2Nc2cccc(C)c2)c1	x	x	-23.7	99.6
CS(=O)(=O)Nc1cc(C(=O)O)ccc1N1CCN(Cc2ccc3c(c2)OCO3)CC1	x	x	1.6	111.3
COc1ccc(Br)c(-c2nc(N)nc(NC3CC3)n2)c1	113.5	96.4	12.1	x
N#CC1=C(SCC(=O)Nc2ccc(Br)cc2)NC(=O)CC1c1ccccc1[N+](=O)[O-] (stereo unspecified)	x	x	-0.3	103.4
Cc1cc(C)n2nc(SC(C)C(=O)NCc3ccccc3Cl)nc2n1 (stereo unspecified)	99.4	82.9	x	102.5
O=C(COc1cccc(-n2cnnn2)c1)NCC1CCCCC1	96.9	105.9	0.1	x
CCCCCCC1CCC(C(=O)NC(C(=O)O)C(C)C)CC1 (stereo unspecified)	88.4	90.4	-11.2	106.2
COc1ccc(-c2nc3scc(CCNS(=O)(=O)c4cc(F)ccc4OC)n3n2)cc1OC	105.4	91.3	x	99.4
O=C(CC(NCCN1CCOCC1)C(=O)O)Nc1ccc2ccccc2c1 (stereo unspecified)	86.1	92.0	-3.0	103.4
CCCN(CCC)C(=O)c1c(NC(=O)c2cccs2)sc2c1CCC(C)C2 (stereo unspecified)	95.6	95.9	7.0	104.2
O=C(COC(=O)CC1CCCC1)NC1CCCCCC1	90.8	79.7	-29.1	x
CCN(c1cccc(C)c1)S(=O)(=O)c1c(C)nc2sc(C)cn2c1=O	96.2	77.7	x	109.9
COc1cccc(CNC(=O)Cn2cc3c(n2)-c2c(oc(C(=O)N4CCOCC4)c2C)CC3)c1	94.3	91.3	x	107.1
CCOC(=O)Cn1cnc2sc(C(=O)OCC)c(C)c2c1=O	75.6	77.9	-21.3	99.3
Cc1cc(C)n(-c2ccc(N3CCSCC3)nn2)n1	102.0	92.5	-3.6	102.3
CCn1c(=O)c2cc(S(=O)(=O)NC3CCCCC3)ccc2n(CC)c1=O	107.7	101.8	3.5	106.5
CN1CCc2c(sc3c2C(=O)NC(c2ccc(OC(=O)c4ccc(Cl)cc4)cc2)N3)C1 (stereo unspecified)	91.7	89.5	-92.9	220.9
COc1ccc(-n2c(Cc3ccccc3)nnc2SCc2nc(-c3cccs3)no2)cc1	115.6	79.1	-3.2	105.9
COc1cc(C(=O)NN)ccc1OC(C)C	86.2	87.0	-16.3	x
CCOC(=O)/C(C#N)=C1/CCCN1	107.5	80.5	x	104.7
CCOC(=O)CCSc1nc(C)c2ccccc2n1	78.2	75.3	x	98.4
CCOc1ccccc1Nc1nc(-c2ccc(C)cc2)c(CC(=O)O)s1	74.2	94.2	-11.3	104.1
Cc1ccc(C(=O)N/C(=C/c2ccc3c(c2)OCO3)C(=O)O)cc1	93.3	88.2	-17.8	92.8
O=C(CO/N=C/c1ccco1)N1N=C2/C(=C/c3cccs3)CCCC2C1c1cccs1 (stereo unspecified)	111.9	89.2	-13.0	x
CCNC(=S)N/N=C/c1cc(OC)c(OC)c(OC)c1	84.7	80.4	-57.3	99.2
CC(C)N(Cc1ccccc1)C(c1ccc(F)cc1)c1c(O)[nH]c(=O)[nH]c1=O (stereo unspecified)	107.6	85.3	-2.0	97.9
NCCCOCc1ccccc1	80.3	93.0	-14.3	x
CCN(CC(=O)Nc1cc(Cl)ccc1C)CC(=O)NC1CC1	95.9	89.1	-7.8	x
O=S(=O)(c1ccc2oc3ccc(S(=O)(=O)N4CCCC4)cc3c2c1)N1CCCC1	91.6	99.4	10.6	99.6
CCOc1ccccc1C(=O)N(Cc1cccs1)c1ccc(Cl)cc1	89.6	76.0	-11.7	104.6
N=C(N=C(N)N)N1CCc2ccccc21	94.5	87.8	-11.1	101.3
Cc1nn(-c2ccc(Cl)cc2)c(C)c1S(=O)(=O)N1CCN(c2ccccn2)CC1	x	x	-0.7	113.7
CN(c1ccccc1)c1cc(N2CCOCC2)c2nonc2c1[N+](=O)[O-]	x	x	-69.0	105.4
Cc1ccc(S(=O)(=O)N2CCC(C(=O)O)CC2)c(C)c1	86.8	84.0	-26.2	x
Cc1ccccc1-c1noc(-c2cc3cc(C(C)(C)C)cc(O)c3oc2=O)n1	92.8	88.0	-11.6	105.9
O=C(CN1C(=O)CC(c2ccc(F)cc2)=Nc2ccccc21)NCc1ccccc1Cl	101.7	100.4	x	97.2
CC(=O)Nc1ccc2c(COC(=O)C3CC3C)cc(=O)oc2c1 (stereo unspecified)	77.9	91.5	-36.7	x
CCCCn1cc2c(c1-c1ccc(Br)cc1)c(=O)n(C)c(=O)n2C	104.2	81.5	-8.4	103.7
O=C(NCc1ccc(F)cc1)c1ccc(NC(=O)N2CC3CCCN3c3ccccc32)cc1 (stereo unspecified)	89.5	84.3	-5.8&-13.6	109.2&104.3
CC1=C(COc2c3occc3cc3ccc(=O)oc23)CC(C)(C)CC1	49.6	59.5	-20.9	103.5
Cc1ccc(CNC(=O)C2CCCN(S(=O)(=O)c3cn(C)cn3)C2)cc1 (stereo unspecified)	91.6	91.7	x	96.6
O=c1[nH]c(CN2CCN(Cc3ccccc3)CC2)nc2ccccc12	105.6	80.5	-12.8	102.7
CN/C=C/C(=O)C(F)(F)F	91.9	100.9	0.5	x
c1ccc(COc2cccc(CNn3cnnc3)c2)cc1	90.1	80.4	x	102.3
CCS(=O)(=O)c1ccc(OC)c(N=NC2=C(O)CC(C)(C)CC2=O)c1	93.2	83.4	-132.8	102.6
O=C(Nc1ccc2c(c1)CCCN2C(=O)c1cccs1)c1cccc(C(F)(F)F)c1	95.4	90.7	x	97.1
Cc1c(Cl)cccc1-n1ncc(C(=O)O)c1C1CCN(C(=O)OC(C)(C)C)CC1	92.8	99.2	-5.1	113.3
O=C(O)/C=C/c1ccc(OC(F)(F)F)cc1	109.5	104.6	-7.1	x
COCCn1c(Cc2ccccc2)nnc1SCc1nnc(-c2ccccc2)o1	96.8	78.3	-1.1	x
Cc1ccc(N2C(=O)CC(C(=O)Nc3cccc(-n4cnnn4)c3)C2c2cccs2)cc1 (stereo unspecified)	94.2	89.1	-10.4	x

Quoted at random: 2 entries already listed, in no set order.
SMILES	Sa growth 42C	Sa growth 42C second temp	HCMV UL50-53 inh	GIV Gai3 FP
N=C(N=C(N)N)N1CCc2ccccc21	94.5	87.8	-11.1	101.3
CC(=O)Nc1ccc2c(COC(=O)C3CC3C)cc(=O)oc2c1 (stereo unspecified)	77.9	91.5	-36.7	x

Record cards, from the list above:
O=C(CN1C(=O)CC(c2ccc(F)cc2)=Nc2ccccc21)NCc1ccccc1Cl in the list: Sa growth 42C = 101.7; Sa growth 42C second temp = 100.4; HCMV UL50-53 inh = x; GIV Gai3 FP = 97.2
CC(=O)Nc1ccc2c(COC(=O)C3CC3C)cc(=O)oc2c1 (stereo unspecified) in the list: Sa growth 42C = 77.9; Sa growth 42C second temp = 91.5; HCMV UL50-53 inh = -36.7; GIV Gai3 FP = x
CCS(=O)(=O)c1ccc(OC)c(N=NC2=C(O)CC(C)(C)CC2=O)c1 in the list: Sa growth 42C = 93.2; Sa growth 42C second temp = 83.4; HCMV UL50-53 inh = -132.8; GIV Gai3 FP = 102.6

Next section:
SMILES	Sa growth 42C	Sa growth 42C second temp	HCMV UL50-53 inh	GIV Gai3 FP
Cc1c(C)n(-c2ccccc2)c2ncn(CCC(=O)NCCC(C)C)c(=O)c12	x	x	-2.7	111.0
CN(C)CCNc1ncnc2sc(-c3ccccc3)cc12	168.2	88.1	-52.5	x
Cc1ccc(SCC(=O)Nc2ccc(C)cc2C)cc1	108.9	87.8	-2.7	x
Cc1ccc(Nc2cc(-n3nc(C)cc3C)ncn2)cc1	x	x	-23.5	106.0
Cc1ccc(-c2[nH]c(-c3ccccc3)nc2SCC(=O)NCC2CCCO2)cc1 (stereo unspecified)	116.1	83.8	-13.2	102.4
Cc1ccc(NC(=O)CN2CCSc3ccc(S(=O)(=O)N4CCCC4)cc32)cc1	94.8	85.2	x	105.1
Cc1cn2c(CO)c(C)nc2s1	97.3	90.2	2.4	x
CSc1ccc(C2N[C@@H](C(=O)O)C(C)(C)S2)cc1 (stereo partly specified)	99.4	87.7	-19.4	102.5
COc1cccc(NC(=O)c2nnn(Cc3ccc(OC)c(Br)c3)c2N)c1	105.3	65.5	-20.4	99.9
CCN1C(=O)C2CC(C)=C(C)CC2C1=O (stereo unspecified)	98.6	97.8	-7.1	91.6
COC(=O)c1ccc(C2C(C#N)=C(C)NC(C)=C2C(=O)Nc2ccccc2)cc1 (stereo unspecified)	82.3	75.5	-21.9	x
CC(C)n1cnc(S(=O)(=O)N2CCCC(C(=O)N3CCN(c4ccc(Cl)cc4)CC3)C2)c1 (stereo unspecified)	x	x	0.5	106.1
Cc1cccc2oc(-c3ccc(N=Cc4cc(C(=O)O)ccc4O)cc3)nc12	106.4	85.4	-10.3	x
COc1cccc(CNC(=O)C2CCCN2S(=O)(=O)c2ccc3c(c2)C(C)(C)C(=O)N3C)c1 (stereo unspecified)	x	x	5.9	104.7
COc1ccc2c(CNCc3cccs3)c(C(=O)O)n(Cc3ccc(F)cc3)c2c1	109.0	92.7	x	102.5

Source: PubChem BioAssay (ICCB-Longwood Screening Facility, Harvard Medical School)
